gsp agonist = gsp mutant agonism; gsp mutant cells, cAMP HTRF, 30 min; control for the full effect not named in the record; Potency, µM (titrated, usually from 76.9 µM), for inactives: at the highest dose activation (cAMP increase), usual class: activators; 340,000 compounds, 0.13% hits; AID 624287; active = well fitted activation curve with a large enough effect; inconclusive = small, poorly fitted or top-dose-only effect, or another doubt; inactive = no such curve, though single readings can be large or run the other way; cell line not stated here;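 also: phosphodiesterase inhibitor Ro 20-1724 added with compounds to block cAMP breakdown; potency is read from the fitted curve at half-maximal effect; nearly all actives have a fitted effect of over 60% in size; about a fifth of the inactives were tested at one dose only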
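Cells stably selected in G418 were plated at 2000/well, grown 16-24 hr, then given compounds in DMSO with the PDE inhibitor […] (300 uM solution added) for 30 min at 37C; cAMP was read by HTRF.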
ClpP mod = qHTS Assay for Activators of ClpP | ATP-dependent Clp protease proteolytic subunit (Bacillus subtilis (strain 168)), P80244 | purified B. subtilis ClpP, FRET peptide cleavage, 20 min | Potency, µM (titrated, usually from 57.5 µM), without a hit: at the highest dose activity change, negative = active | 340,000 compounds, 1.9% hits; active = well fitted falling curve with a large enough effect; inconclusive = small, poorly fitted or top-dose-only effect; inactive = no such curve, though single readings can be large or run the other way; also: potency is read from the fitted curve at half-maximal effect; the source files actives as falling curves though it sought activators and does not explain the sign; nearly all actives have a fitted effect of over 65% in size; many hits overshoot -100%
Target sequence (P80244 whole entry, looked up): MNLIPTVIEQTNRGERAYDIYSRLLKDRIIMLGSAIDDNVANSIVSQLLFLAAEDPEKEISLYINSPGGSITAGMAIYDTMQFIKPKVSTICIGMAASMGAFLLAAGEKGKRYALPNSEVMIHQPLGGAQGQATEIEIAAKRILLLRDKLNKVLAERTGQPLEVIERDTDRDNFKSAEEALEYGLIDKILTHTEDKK
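Purified B. subtilis ClpP, 10 microg/mL final in Tris/HCl pH8 with KCl, BSA, glycerol and Tween-20, cleaved an Abz/nitrotyrosine-quenched decapeptide. Fluorescence (ex 320, em 430) was read at 0 and 20 min at room temperature. Delta was normalized to 5.8 microM ADEP and DMSO/no-enzyme controls.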
gsp antagonist = gsp mutant antagonism; 340,000 compounds, 0.4% hits; AID 624288; Potency, µM (doses to about 76.9 µM), for the others: at the highest dose activity change, negative = inhibition, hits mostly inhibitors; gsp-mutant cells, cAMP HTRF, 30 min; control for the full effect not named in the record; active = falling curve of any shape with a large fitted effect; inconclusive = falling curve, mostly with a smaller effect; inactive = flat or rising curve; cell line not stated here;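 also: intracellular cAMP measured with PDE inhibitor Ro 20-1724 present during compound exposure; potency is read from the fitted curve at half-maximal effect; % is scaled to controls: 0 for no effect and ±100 for the full control effect; nearly all actives have a fitted effect of over 65% in size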
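Cells in G418 medium, seeded 16-24 h, 37C; buffer exchange to DPBS + 1 mM CaCl2, 0.5 mM MgCl2, 0.05% BSA; cpds in DMSO + […] (300 uM stock), 30 min 37C; HTRF cAMP detection.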
Menin MLL FP FL = inhibitors of human menin-MLL interaction, wild-type MLL peptide | Fluorescence polarization, fluorescein-MLL peptide displacement from menin | FP activity change, % at 61.4 µM | 290,000 tested, under 10 active; inconclusive = falling polarisation curve, or a change in total fluorescence; inactive = total fluorescence flat and polarisation flat or rising; no compound was filed as active; the % refers to the polarisation; negative = inhibition;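 also: % of control where 0% means no effect; inhibitors lower the polarisation; unlabelled MLL peptide was the positive control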
Sfp PPTase inh = blocks B. subtilis Sfp PPTase activity; Q9F4F7; AID 1490; Biochemical Sfp PPTase activity, qHTS; Potency, µM, without a hit: max response, negative = inhibition, hits mostly inhibitors; 310,000 compounds, 3.5% hits; active = well fitted inhibition curve with a large enough effect; inconclusive = small, poorly fitted or top-dose-only effect, or another doubt; inactive = no such curve, though single readings can be large or run the other way;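 also: the enzyme is Sfp with the accession as filed and its product quenches rhodamine fluorescence; potency is read from the fitted curve at half-maximal effect; 0% = enzyme reaction without inhibitor and -100% = no enzyme wells; top concentration of the series not given in the record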
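Reaction rates are the 30-min fluorescence difference (ex 525, em 598 nm) in wells containing 15 nM Sfp, 5 uM rhodamine-CoA and 12.5 uM BHQ-2-YbbR at pH 7.6 with 10 mM MgCl2.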
TRPML1 inh = blocks the human TRPML1 channel | Q9GZU1 | 390,000 compounds, 0.02% hits | AID 624415 | activity change, negative = inhibition, % (no concentration beside the values) | TRPML1-inducible cells, Ca2+ dye fluorescence, FDSS; hits give low values; inhibition of EC80 agonist-evoked calcium signal; in the data active means activity change below about -50%; inconclusive means about -30% to -50%; inactive means above about -30%;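 also: stimulus is agonist 54-4 at its EC80 concentration; % is scaled to controls: 0 for no effect and ±100 for the full control effect; compound concentration not given in the record; the text of the record puts the active cut at -80%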
Target sequence (Q9GZU1 whole entry, looked up): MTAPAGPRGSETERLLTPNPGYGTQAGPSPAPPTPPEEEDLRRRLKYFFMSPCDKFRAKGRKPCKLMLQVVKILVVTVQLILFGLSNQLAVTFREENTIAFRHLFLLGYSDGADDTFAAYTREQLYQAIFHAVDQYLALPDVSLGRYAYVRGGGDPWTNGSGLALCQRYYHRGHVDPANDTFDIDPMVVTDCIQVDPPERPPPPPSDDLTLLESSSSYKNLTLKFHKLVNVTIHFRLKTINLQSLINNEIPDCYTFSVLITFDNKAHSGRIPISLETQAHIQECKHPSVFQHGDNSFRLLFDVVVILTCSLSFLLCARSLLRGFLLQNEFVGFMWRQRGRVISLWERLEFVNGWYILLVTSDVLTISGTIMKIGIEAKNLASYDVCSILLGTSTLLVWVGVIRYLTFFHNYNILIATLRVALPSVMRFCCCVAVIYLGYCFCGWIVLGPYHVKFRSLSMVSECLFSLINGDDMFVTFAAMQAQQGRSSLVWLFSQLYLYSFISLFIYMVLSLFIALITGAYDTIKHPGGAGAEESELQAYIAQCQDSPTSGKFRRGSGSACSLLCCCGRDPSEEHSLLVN
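Tet-induced TRPML1-DL cells loaded with Ca8 no-wash calcium dye were read kinetically on FDSS. Compound addition was followed by EC80 agonist 54-4 (4 uM final); inhibition was read over 110 s.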
TRPV1 PAM = enhances activation of the human vanilloid receptor TRPV1 | Q8NER1 | TRPV1-expressing cells, Fluo-8 calcium influx, capsaicin EC20 potentiation; host cell line not named in the record; control for the full effect not named in the record | potentiation, % at 8.33 µM | 320,000 compounds, 0.02% hits | AID 540277; active means potentiation above 80%; inconclusive means 30% to 80%; inactive means below 30%; also: 0% is about no effect
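Fluo-8 calcium influx in TRPV1-expressing cells, kinetic read (ex 480/em 520 nm). Compound added and read 3 min for agonist activity, followed by capsaicin at EC20 final and 2 min further read for enhancement.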
The depositor's hits bear a star; ? = inconclusive; . = not tested or not shown; [ ] = dose if it differs, or a comment.

SMILES	gsp agonist	ClpP mod	gsp antagonist	Menin MLL FP FL	Sfp PPTase inh	TRPML1 inh	TRPV1 PAM
C=CCn1c(SCC(=O)NCC2CCCO2)nnc1-c1ccncc1 (stereo not given)	-0.4%	-6.0%	6.4%	.	.	-20.6	4.8
CCOC(=O)C1CCN(C(=O)CN(Cc2ccc(Cl)cc2)S(C)(=O)=O)CC1	5.5%	-4.2%	-7.4%	0.1	16.6%	7.7	2.4
O=C(O)[C@H]1Cc2ccccc2CN1S(=O)(=O)c1ccc(F)cc1	15.1%	-0.6%	0.4%	0.2	27.2%	8.9	5.6
COc1ccccc1-n1c(SCC(=O)c2ccc(O)cc2O)nc2cc([N+](=O)[O-])ccc21	-50.5%[inhibitor]	-1.8%	?	2.4	0.5%	-3.9	10.1
Cc1nn(CCC#N)c(C)c1Oc1ccccc1O	?	-1.2%	6.6%	-0.7	22.1%	-5.2	22.0
COc1ccccc1CNC(=O)CSc1nnc2c(Cl)cc(C(F)(F)F)cn12	-12.1%[15.4 µM]	-0.1%	1.7%	7.5	8.3%	4.8	6.5
CCc1ccc(OCc2nnc(SCC(=O)NCC3CCCO3)n2C)cc1 (stereo not given)	1.0%[15.4 µM]	.	2.3%	1.7	-2.0%	-15.7	-1.3
Cc1ccc(C)c(OCC(=O)Nc2cc(C)on2)c1	-18.1%	-0.1%	2.4%	-0.1	-1.9%	9.3	4.0
CCOC(=O)[C@H]1[C@H]2COc3cc(OC)ccc3[C@@H]2N2C(=O)CN(C)C(=O)[C@@]12C	18.2%	-2.4%	7.3%	.	.	-0.8	.
O=C1c2cccc3c(O)ccc(c23)C(=O)N1Cc1ccccc1	2.9%	-1.9%	-5.8%	?	?	-0.5	-7.0
C/C(=N\Nc1nc(N)cc(Cl)n1)c1cccc([N+](=O)[O-])c1	25.1%	0.3%	-14.3%	2.8	-3.6%	21.9	13.7
CCN1CCN(S(=O)(=O)c2ccc(Cl)c(C(=O)Nc3ccccc3N3CCCC3)c2)CC1	-32.2%[inhibitor]	-2.1%	-3.1%	.	.	-1.8	-2.8
CCOC(=O)C1(Cc2ccc(Cl)cc2)CCN(C(=O)C2CCCO2)CC1 (stereo not given)	5.0%[15.4 µM]	.	0.1%	-2.0	4.7%	-0.5	-19.0
Cc1ccc([C@H]2C[C@@H](O)[C@H](n3cc(COC(=O)c4ccccc4)nn3)CN2C(=O)c2cccs2)cc1	-26.6%	-1.7%	.	.	.	5.0	.
COC(=O)Cc1ccc(NC(=S)N2CCN(CCO)CC2)cc1	22.0%[15.4 µM]	0.2%	-8.1%	.	.	10.4	.

Limited to TRPV1 PAM, Sfp PPTase inh and TRPML1 inh (five entries from above):
| Structure | TRPV1 PAM | Sfp PPTase inh | TRPML1 inh |
| --- | --- | --- | --- |
| CCc1ccc(OCc2nnc(SCC(=O)NCC3CCCO3)n2C)cc1 (stereo not given) | -1.3 | -2.0% | -15.7 |
| Cc1ccc(C)c(OCC(=O)Nc2cc(C)on2)c1 | 4.0 | -1.9% | 9.3 |
| COc1ccccc1CNC(=O)CSc1nnc2c(Cl)cc(C(F)(F)F)cn12 | 6.5 | 8.3% | 4.8 |
| CCOC(=O)C1(Cc2ccc(Cl)cc2)CCN(C(=O)C2CCCO2)CC1 (stereo not given) | -19.0 | 4.7% | -0.5 |
| CCN1CCN(S(=O)(=O)c2ccc(Cl)c(C(=O)Nc3ccccc3N3CCCC3)c2)CC1 | -2.8 | . | -1.8 |

Sorted by heavy-atom count (rising): some entries from above
SMILES	gsp agonist	ClpP mod	gsp antagonist	Menin MLL FP FL	Sfp PPTase inh	TRPML1 inh	TRPV1 PAM
C/C(=N\Nc1nc(N)cc(Cl)n1)c1cccc([N+](=O)[O-])c1	25.1%	0.3%	-14.3%	2.8	-3.6%	21.9	13.7
C=CCn1c(SCC(=O)NCC2CCCO2)nnc1-c1ccncc1 (stereo not given)	-0.4%	-6.0%	6.4%	.	.	-20.6	4.8
CCc1ccc(OCc2nnc(SCC(=O)NCC3CCCO3)n2C)cc1 (stereo not given)	1.0%[15.4 µM]	.	2.3%	1.7	-2.0%	-15.7	-1.3
CCOC(=O)[C@H]1[C@H]2COc3cc(OC)ccc3[C@@H]2N2C(=O)CN(C)C(=O)[C@@]12C	18.2%	-2.4%	7.3%	.	.	-0.8	.
COc1ccccc1-n1c(SCC(=O)c2ccc(O)cc2O)nc2cc([N+](=O)[O-])ccc21	-50.5%[inhibitor]	-1.8%	?	2.4	0.5%	-3.9	10.1

Next structures.
SMILES	gsp agonist	ClpP mod	gsp antagonist	Menin MLL FP FL	Sfp PPTase inh	TRPML1 inh	TRPV1 PAM
COC(=O)C(Cc1cccc(C)n1)(c1ccccc1)c1ccccc1	16.5%	-0.7%	1.1%	-13.1	-4.8%	-8.7	-4.9
Cc1cc(C)c(NC(=O)COC(=O)C2=COCCO2)c(C)c1	-14.0%	-0.9%	.	.	.	-3.0	.
CC(Sc1ncn[nH]1)C(=O)NCc1ccccc1 (stereo not given)	-10.6%	-3.2%	13.2%	.	13.5%	-5.1	-9.6
CC(C)c1onc(C(=O)Nc2cccnc2Cl)c1[N+](=O)[O-]	-15.0%	0.4%	14.8%	-6.1	6.6%	4.7	-15.0
CN(C(=O)C1CCCCC1)C1(C)CCS(=O)(=O)C1 (stereo not given)	0.9%[15.4 µM]	.	9.8%	.	.	-2.7	0.4
CCN(CC(=O)Nc1ccc(NC(C)=O)cc1)CC(=O)Nc1cccc(Cl)c1	-58.6%[inhibitor]	.	0.6%	-0.2	4.4%	17.1	7.1
O=C(c1ccccc1)N1CCN(C2c3cccc4cccc(c34)C2NS(=O)(=O)c2ccccc2)CC1 (stereo not given)	-65.5%[inhibitor]	-1.7%	-14.1%	-1.2	7.5%	-5.2	16.5
Clc1cc(Cl)cc(CN2CCSCC2)c1	?	0.6%	-5.6%	7.2	-5.0%	17.2	.
O=C(NC(NC1CCS(=O)(=O)C1)C(Cl)(Cl)Cl)c1ccc(Br)cc1 (stereo not given)	1.9%	0.4%	-11.4%	0.8	22.2%	-4.9	-0.9
O=C(c1cccc(Cl)c1)N1CCn2c1nc1ccccc12	7.0%[15.4 µM]	.	12.4%	2.3	15.6%	10.1	-0.4
CCCn1c(N)c(N(CCOC)C(=O)c2cc3c(s2)CCCCC3)c(=O)[nH]c1=O	-54.4%[inhibitor]	-1.9%	7.1%	.	12.1%	-13.9	10.5
CNC(=O)CSc1nnc(-c2ccc3c(c2)OCO3)n1C	9.7%	0.7%	5.2%	0.7	22.5%	13.6	0.0
C=CCNC(=S)N(CC)c1cccc2ccccc12	4.7%[15.4 µM]	.	-2.2%	-2.0	26.2%	6.8	?
CCOc1ccc2[nH]c3c(NCCCOC)ncnc3c2c1	0.3%	3.7%	-24.0%	3.5	-6.1%	.	3.8
OCCC1CN(Cc2cccc(-c3ccco3)c2)CCN1Cc1ccsc1 (stereo not given)	-4.0%	0.1%	60.6%[activator]	-3.0	10.3%	-11.0	3.0
CCN(CC)CCCN1C(=O)C(O)=C(C(=O)c2sc(C)nc2C)C1c1ccc(C)o1 (stereo not given)	.	.	.	-2.4	1.1%	.	1.5
Cc1ccc(O)c(C(=O)c2cnn(C(=O)COc3ccc(Cl)cc3)c2)c1	6.0%	15.8µM*	6.9%	2.2	-3.1%	-5.4	1.9

Single entries from the entries so far.
O=C(c1cccc(Cl)c1)N1CCn2c1nc1ccccc12 | Sfp PPTase inh: 15.6%
CC(C)c1onc(C(=O)Nc2cccnc2Cl)c1[N+](=O)[O-] | gsp antagonist: 14.8%

Bioassay records from PubChem.
